Bioassay records: PubChem, ICCB-Longwood Screening Facility, Harvard Medical School
HCMV NEC inh: disrupts HCMV UL50-UL53 complex binding. HTRF UL50-UL53 interaction, normalized percent inhibition. inhibition, % (no concentration beside the values). actives 0.15% (n = 190,000);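 active = both replicates at 50% or more, plus weaker picks with an unusually low signal ratio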;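 also: stock transfer was 100 nL into about 20 µL; 0% = negative control wells and 100% = wells with untagged competitor protein; inactives centre near -12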
GIV Gai3 FP: blocks GIV peptide binding to rat Galpha-i3; P08753; Galpha-i3/FITC-GIV peptide fluorescence polarization, 90 min; active compounds read low; scaled: aluminum fluoride 0%, vehicle 100%; percent of control (FP), % (test concentration not listed); actives 0.42% (n = 210,000); AID 1224905;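 active = replicate mean at 85% of control or lower, very high polarization wells dropped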;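 also: lower values mean more displacement of the GIV peptide from Galpha-i3; wells of about 15 µL received 100 nL stock; the first replicate is given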
Target sequence (P08753 whole entry, looked up): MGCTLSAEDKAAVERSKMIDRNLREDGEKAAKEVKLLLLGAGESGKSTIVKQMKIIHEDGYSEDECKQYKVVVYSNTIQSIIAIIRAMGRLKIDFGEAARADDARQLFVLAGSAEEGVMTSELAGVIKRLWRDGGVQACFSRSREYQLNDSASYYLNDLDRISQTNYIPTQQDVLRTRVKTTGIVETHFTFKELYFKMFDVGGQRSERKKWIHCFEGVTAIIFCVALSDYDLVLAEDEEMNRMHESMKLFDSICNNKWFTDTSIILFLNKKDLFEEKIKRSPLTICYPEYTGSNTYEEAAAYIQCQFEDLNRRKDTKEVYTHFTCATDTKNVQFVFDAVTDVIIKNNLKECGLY
Sa growth inh: inhibitors of Staphylococcus aureus growth at 42 °C; S. aureus RN4220 growth, OD600, 20 h; active compounds read low; relative growth, % (no concentration beside the values); actives 0.53% (n = 170,000);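 active = growth at 42 °C up to 50% and 20 or more points under that at 30 °C, or under 10% at both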;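 also: 300 nL library stock went into each well; scaled to the means of positive and negative controls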
Sa growth inh second temp: recorded beside Sa growth inh, whose call it bears; relative growth, %; measured here: growth at 30 °C;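 optical density after 20 h as mean of two plates; 100% = untreated growth and lower means inhibition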
The depositor's hits bear a star; nt = not tested or not shown; & = joins results of further samples.

Structure	HCMV NEC inh	GIV Gai3 FP	Sa growth inh	Sa growth inh second temp
CCOc1ccc(NC(=O)CN2C(=O)COc3ccc(S(=O)(=O)Nc4ccccc4)cc32)cc1	nt	106.6	92.8	83.7
Cc1cccc(NCN2C(=O)S/C(=C\c3cccc(F)c3)C2=O)c1	-17.5	nt	58.5	34.0
CCOC(=O)c1[nH]c(CSc2cccc[n+]2[O-])c(C(=O)OCC)c1C	61.6*	nt	40.5	10.8
COCC(=O)Nc1nnc(SCc2cc(=O)n3oc(C)cc3n2)s1	-22.5	102.3	nt	nt
O=C(CC1C(=O)N(c2ccccc2)C(=O)N1CCC1=CCCCC1)Nc1ccc(F)cc1 (configuration not stated)	-19.7	100.3	104.3	79.8
O=C(NCCc1c[nH]c2ccccc12)c1ccc(COc2c(F)c(F)cc(F)c2F)o1	-2.1	105.3	97.7	65.2
Cc1cccc(C)c1NC(=O)CS(=O)(=O)c1cccc2nsnc12	-75.9	105.3	115.0	87.7
Cc1sc2ncnc(-n3cnc4ccccc43)c2c1C	-6.1	nt	90.3	83.9
Cc1ccc(N(c2ccc(C)cc2)c2cccnc2)cc1	-14.6	nt	5.5*	1.3*
NS(=O)(=O)c1ccc(CCNc2nccn(-c3ccc4c(c3)OCO4)c2=O)cc1	-40.7	98.8	nt	nt
CC1CCc2c(sc(NC(=O)CSc3nccn3C)c2C#N)C1 (configuration not stated)	27.5	104.8	92.1	91.8
COc1ccc(-c2noc(-c3ccc(NCC4CCCO4)c([N+](=O)[O-])c3)n2)cc1OC (configuration not stated)	-28.3	97.4	97.3	79.0
COc1ccc(NC(=O)NCCn2c(C(F)(F)F)nc3cccnc32)c(OC)c1	-11.9	109.8	nt	nt
CCOC(=O)c1ccc2[nH]c3c(c2c1)CN(C)CC3	-11.5	97.9	94.6	88.9
O=C(Nc1ccc(OCc2cc(=O)n3c4c(sc3n2)CCCC4)cc1)c1ccccc1	-9.3	112.7	102.6	84.5
O=C(CN1CCN(c2ccccc2)CC1)Nc1ccccc1	-4.7	107.3	91.6	96.4
O=C(C1CCC(=O)N1S(=O)(=O)c1ccccc1)N1CCN(c2cccc(Cl)c2)CC1 (configuration not stated)	-17.2	107.1	nt	nt
CN(C)c1ccc(C2NCC(CSc3nc(-c4cccs4)cc(C(F)(F)F)c3C#N)O2)cc1 (configuration not stated)	-17.8	nt	140.2	71.4
C[C@@H]1CC2(CCCN2Cc2ccccc2)C[C@H]1C	-14.2	nt	116.4	87.8
CCc1c(C)sc2c1CCN(C(=O)Nc1ccccc1)C2c1ccccc1 (configuration not stated)	13.4	103.0	nt	nt
CN1CCN(C(=O)CSc2nc3ccccc3nc2SCC(=O)N2CCN(C)CC2)CC1	-8.6	102.6	100.2	97.2
COc1ccc2cc3c(nc2c1)N(S(=O)(=O)c1ccc2c(c1)OCO2)CC3	-2.9	99.9	nt	nt
COc1ccc(C)c2sc(N3CCN(C(=O)c4cccc(F)c4)CC3)nc12	nt	103.2	105.6	93.9
Cc1onc(-c2ccccc2Cl)c1C(=O)OCCN1CCCC1=O	-18.2	nt	101.7	94.5
COc1ccccc1NC(=O)Cn1c(=O)n(CCCCC(=O)NCCC(C)C)c(=O)c2ccccc21	-1.7	107.8	nt	nt
COC(=O)CCC(=O)c1cc(C(C)(C)C)sc1C(C)(C)C	nt	102.5	94.1	91.5
Cc1c(Cl)cccc1Nc1nc(N)nc(CSc2nc3ccccc3s2)n1	-29.4	103.7	105.2	84.3
Cc1cc(=O)c(C(=O)O)nn1-c1ccccc1	-11.9	nt	89.4	98.7
Cc1ccc(COC(=O)c2nnn(-c3ccc(C)c(Cl)c3)c2C)cc1	-36.9	100.1	nt	nt
CCn1nc(-n2cnnc2)c(NS(=O)(=O)c2ccc(Cl)s2)c1C	-17.7	95.8	nt	nt
CC1(C)OC(=O)C2(C(=O)O1)C1C3C4CC5C6C4C1C6C2C53 (configuration not stated)	-3.6	nt	82.5	97.2
NCc1ccc2[nH]c(=O)[nH]c2c1	1.0	101.6	91.9	102.0
Cc1noc(C)c1C(=O)OCCCCN1C(=O)c2ccccc2C1=O	-53.5	nt	81.9	85.9
O=C(c1cc(-c2ccccc2)n[nH]1)N1CCN(c2cccc(C(F)(F)F)c2)CC1	nt	102.8	85.4	65.1
O=C1CC2(CCN(S(=O)(=O)c3ccccc3)CC2)Oc2ccccc21	-6.2	99.2	96.0	81.0
CCOC(=O)c1[nH]c(C)c(CN(C(C)=O)c2ccc(OCC)cc2)c1C	8.8	107.6	115.5	82.9
CC1=C(c2ccc(F)cc2)S(=O)(=O)N=C1Nc1ccc(C)cn1	0.8	107.4	100.1	97.6
C=CCN1C(=O)SC(CC(=O)O)C1=O (configuration not stated)	-18.2	104.4	86.9	88.8
Cc1ccccc1Cn1cnc2ccccc2c1=O	-1.0	nt	126.3	90.7
COc1ccc(OC)c(NC(=O)NCCCn2c(-c3ccncc3)nc3cccnc32)c1	-7.4	102.3	nt	nt
CCN(c1nc2nc(C)cc(C)n2n1)S(=O)(=O)c1ccc(C)cc1	-16.7	103.1	nt	nt
Cc1cc(C)c(NC(=O)c2cc(S(=O)(=O)N3CCC4(CC3)OCCO4)ccc2F)c(C)c1	nt	101.2	95.7	89.4
O=C(O)C1OC(C(=O)O)C2C1C(F)(F)C2(F)F (configuration not stated)	6.7	nt	104.5	100.0
COc1cc(C2NC(=O)NC(C)=C2C(=O)OCC(F)(F)F)cc(Br)c1O (configuration not stated)	-15.7	114.5	nt	nt
N#CCOC(=O)c1cc(=O)c2ccccc2o1	0.7	nt	107.3	86.9
Cc1ccc(S(=O)Cc2nc(-c3ccc(C(=O)N4CCOCC4)cc3)oc2C)cc1 (configuration not stated)	-5.0	101.3	100.1	93.2
O=c1c(NCc2cccs2)nccn1-c1ccccc1	nt	104.4	94.0	86.0
CC(C)OC(=O)c1ccc(-n2cccn2)cc1	-2.9	100.2	89.9	99.5
COC(=O)c1c(C)oc(C)c1S(=O)(=O)NCc1ccc(OC)cc1	0.8	99.5	86.8	80.8
CCC(=O)N1CCc2cc(CNC(=O)Cc3ccc(OC)c(OC)c3)ccc21	nt	103.1	114.0	84.0
COC(=O)c1cc2ccsc2n1CC(=O)Nc1ccc(C)cc1Cl	1.9	103.9	86.6	81.6
O=C1N(c2ccccc2)C(=O)N(c2ccccc2)C2c3ccccc3C=CN12 (configuration not stated)	2.5	98.9	98.2	96.7
COc1ccc(-c2nc(N)nc(SC)c2C#N)cc1	-8.9	100.8	94.4	65.4
O=C(CSc1nc2c([nH]c3ccccc32)c(=O)n1-c1ccccc1F)Nc1cccc(C(F)(F)F)c1	nt	96.4	60.4	48.2
CN(CC1COc2ccccc2O1)C(=O)C1(c2ccccc2)CC1 (configuration not stated)	-7.0	nt	100.1	101.4
Cc1cc(C)c(C(=O)c2ccccc2)cc1C(=O)c1ccccc1	nt	110.0	92.3	61.6
COc1ccc(C(=O)c2coc3ccc(OC(C)=O)cc23)cc1	-19.2	103.3	83.0	54.9
COc1ccc(Cn2c(=O)n(Cc3ccco3)c(=O)c3oc4ccccc4c32)cc1	nt	102.3	120.6	88.6
CCC(O)c1nc2ccccc2n1CCOc1ccccc1 (configuration not stated)	nt	100.4	88.7	82.5
Cc1ccc(NC(=O)c2cc3nc(-c4ccc5c(c4)OCO5)cc(C(F)(F)F)n3n2)cc1Cl	-6.7	101.8	111.9	85.5

6 compounds already listed, arranged by their value in Sa growth inh second temp, highest first.
compound	Sa growth inh second temp
O=C(O)C1OC(C(=O)O)C2C1C(F)(F)C2(F)F (configuration not stated)	100.0
Cc1cc(C)c(NC(=O)c2cc(S(=O)(=O)N3CCC4(CC3)OCCO4)ccc2F)c(C)c1	89.4
CCC(=O)N1CCc2cc(CNC(=O)Cc3ccc(OC)c(OC)c3)ccc21	84.0
COC(=O)c1cc2ccsc2n1CC(=O)Nc1ccc(C)cc1Cl	81.6
COc1ccc(-c2nc(N)nc(SC)c2C#N)cc1	65.4
Cc1cc(C)c(C(=O)c2ccccc2)cc1C(=O)c1ccccc1	61.6

Reprinted at random: 2 compounds from above
Structure	HCMV NEC inh	GIV Gai3 FP	Sa growth inh	Sa growth inh second temp
Cc1ccc(NC(=O)c2cc3nc(-c4ccc5c(c4)OCO5)cc(C(F)(F)F)n3n2)cc1Cl	-6.7	101.8	111.9	85.5
COc1ccc(Cn2c(=O)n(Cc3ccco3)c(=O)c3oc4ccccc4c32)cc1	nt	102.3	120.6	88.6

The list goes on.
The line under a structure holds: HCMV NEC inh | GIV Gai3 FP | Sa growth inh | Sa growth inh second temp
COc1ccc2[nH]c(=O)c(CN(Cc3cccs3)C(=O)c3cccs3)cc2c1
 : -5.3 | 99.3 | 99.0 | 71.4
CCN(c1ccccc1)S(=O)(=O)c1ccc(NC(=O)c2cc(=O)c3ccc(C)c(C)c3o2)cc1
 : 13.7 | 103.6 | 82.5 | 94.7
COC(=O)C(C)Sc1nc2c(cnn2-c2ccc(F)cc2)c(=O)[nH]1 (configuration not stated)
 : -21.2 | 105.5 | 120.2 | 92.6
CC1CC(=O)NN=C1c1ccc(N)c(N)c1 (configuration not stated)
 : -16.6 | 107.0 | 91.2 | 81.5
CCN1CCN(CCNC(=O)CN2C(=O)CCCc3ccccc32)CC1
 : -10.4 | 107.5 | nt | nt
CCc1ccccc1Nc1nn2c(=O)c3ccc(C(=O)NCCC4=CCCCC4)cc3nc2s1
 : nt | 106.4 | 105.2 | 101.2
O=C1C(=O)N(C2CCN(C(=O)c3cccc(Cl)c3)CC2)CCN1Cc1ccc(F)cc1
 : nt | 100.0 | 90.5 | 88.6
O=C1CC(C(=O)Nc2ccc(C(=O)O)c(O)c2)C(c2ccccc2)O1 (configuration not stated)
 : -1.6 | 100.3 | 109.4 | 87.4
CCN(CC)C(=O)C1=C(C)N=C2SC(C#N)=C(N)N2C1c1cc(OC)ccc1OC (configuration not stated)
 : -70.2 | 114.5 | 58.6 | 36.3
O=C(NCCc1nc2ccccc2[nH]1)Nc1ccccc1
 : 4.7 | nt | 118.2 | 89.0
COc1ccc(CCNC(=O)CSc2cn(CCNC(=O)c3c(F)cccc3F)c3ccccc23)cc1OC
 : -16.5 | 106.0 | 85.7 | 79.2
O=C(CSc1ccc(Cl)cc1)N1CCC(C(F)(F)F)CC1
 : 3.4 | 99.0 | 93.6 | 101.3
Cc1ccc(C2=Nn3c(nnc3C3CCCCC3)SC2C)cc1 (configuration not stated)
 : 6.3 | nt | 80.5 | 99.9
CCOc1cc(C2Nc3ccccc3NC3=C2C(=O)CC(c2ccc(OC)c(OC)c2)C3)cc([N+](=O)[O-])c1O (configuration not stated)
 : -132.6 | 105.3 | nt | nt
COc1ccc(OC)c(NC(=O)Cn2ccc3ccccc3c2=O)c1
 : -5.9 | 99.5 | 98.6 | 90.9
O=C(C1=C(O)C(=O)N(c2ccccn2)C1c1ccccc1)c1cccs1 (configuration not stated)
 : -33.8 | nt | 107.6 | 88.4
CCOc1cc(C=C2C(=O)NC(=O)NC2=O)ccc1OCCOc1ccc(C)cc1
 : -14.8 | 104.1 | nt | nt
O=C(O)/C=C1/C(=O)Nc2ccccc21
 : -13.7 | nt | 89.8 | 91.6
O=c1[nH][nH]c2ccc(Cl)cc12
 : -19.0 | 98.8 | 102.1 | 93.0
CC1=CC(C)(C)N(C(=O)Cc2ccccc2)c2ccccc21
 : -0.4 | 101.1 | 104.5 | 70.1
Cc1cc(C)c2c(=O)cc(C(=O)Nc3ccccc3C(F)(F)F)oc2c1
 : -14.2 | 106.4 | 106.9 | 89.0
O=C(NCc1cccc(Cl)c1)C1CCCN(c2nc3ccccc3n(Cc3ccccc3)c2=O)C1 (configuration not stated)
 : -24.0 | 105.0 | nt | nt
Clc1ccc(OCc2noc(COc3ccc(Cl)cc3Cl)n2)c(Cl)c1
 : -15.7 | 105.0 | 102.3 | 81.0
CC1CC(OC(=O)c2ccccc2O)CC(C)(C)C1 (configuration not stated)
 : -31.2&-26.7 | nt | 93.1 | 88.6
Cc1cc(NC(=O)c2cccs2)cc(-c2nc3cc(Cl)ccc3o2)c1O
 : -14.2 | 100.8 | 104.7 | 90.6
COc1ccc(N2CCN(C(CNS(=O)(=O)c3c(C)cc(C)cc3C)c3ccco3)CC2)cc1 (configuration not stated)
 : -11.8 | 94.2&102.1 | 114.7&105.2 | 91.1&93.8
Cc1nnc(NC(=O)C(C)N2CCCC2)s1 (configuration not stated)
 : -1.1 | 103.2 | 102.2 | 91.2
Cc1cc(Nc2ccc(C(=O)O)c(O)c2)n2ncnc2n1
 : -3.8 | 112.3 | 106.3 | 93.1
Cc1cccc(N2CCN(C(=O)C3CCN(c4ccc(N5CCOCC5)nn4)CC3)CC2)c1C
 : -31.9 | 96.3 | nt | nt
Cn1cc(-c2cc3n(n2)CCC(=O)N3CCCC(=O)Nc2ccccc2Cl)c2ccccc21
 : nt | 109.1 | 92.9 | 88.6
CC(C)(C)c1cc(C(C)(C)C)n(-c2ccc(N3CC(C(=O)O)CC3=O)cc2)n1 (configuration not stated)
 : 0.4 | 103.9 | 119.7 | 113.2
Cc1ccccc1OCCn1c(=N)n(CCO)c2ccccc21
 : -36.4 | 106.9 | 96.9 | 71.0
CCOc1ccc(NC(=O)NCCn2c(-c3ccc(F)cc3)nc3ccccc32)cc1
 : 7.7 | 107.8 | nt | nt
CSC1=N/C(=C/c2cccs2)C(=O)N1
 : -30.7 | 100.2 | 112.7 | 84.0
